Assay outcomes (PubChem)
CapD inh = blocks the Bacillus anthracis CapD enzyme. AID 492967. z-score (concentration not given with the values). actives 0.23% (n = 140,000). purified CapD enzyme, fluorescence intensity read-out; active compounds read low; some hits fall short of the stated cut;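 active = z-score under -4 in either of two replicates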;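 also: stock transfer was 100 nL into about 40 µL; score is relative to mean and spread of the plate; one replicate is shown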
AID504770 = growth inhibitors of E. coli YBA685 in a screen for V. cholerae RctB (chromosome II replication) inhibitors | E. coli YBA685 rctB-dependent plasmid, OD600 growth, 3 h; active compounds read low | z-score (no concentration beside the values) | actives 0.27% (n = 130,000) | AID 504770;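 active = z-score under -2 on both plates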;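 also: wells of about 30 µL received 100 nL stock; score is relative to mean and SD of the test wells; the first replicate is given; strong numbers were not always called active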
An asterisk follows results filed as active; . = no result given.

Below each compound – CapD inh, AID504770
#1 Cc1cc(C)nc(NS(=O)(=O)c2ccc(NC(=O)c3oc4ccccc4c3C)cc2)n1
  0.22, .
#2 CC1CC(C)(C)N(C(=O)Nc2ccc(Cl)c(Cl)c2)c2ccccc21 (stereo not drawn)
  -0.01, .
#3 CN(C)Cc1nc2ccccc2c(=O)n1Cc1nc(-c2cc3ccccc3o2)cs1
  ., -0.55
#4 O=C(CSc1ccccn1)c1ccc(F)cc1
  -0.04, 1.5
#5 CC1=CC(C)(C)N(C(=O)c2ccccc2)c2ccccc21
  -0.42, -0.7
#6 CSc1scc2c1C(=O)CC(C)(C)C2
  -0.59, 0.15
#7 CCCn1cc(S(=O)(=O)CC(=O)Nc2ccc(C)cc2)c2ccccc21
  -0.2, -0.3
#8 CCOC(=O)C1C(=O)OC2(CCCCC2)C1C#N (stereo not drawn)
  1.7, -0.1
#9 CN(C)C(=S)SCC(=O)Nc1ccc(C#N)cc1
  ., -0.7
#10 O=C(NC1CC1)C1CCN(C(=O)c2ccc(Cl)cc2)CC1
  ., -0.4
#11 COc1ccc(/C=C2\SC(=S)N(CCCC(=O)Nc3c(C)n(C)n(-c4ccccc4)c3=O)C2=O)cc1
  0.51, .
#12 CC1=NN(c2ccc(C)c(C)c2)C(=O)/C1=C\c1ccc(-c2ccc(S(N)(=O)=O)cc2)o1
  2.6, -0.15
#13 CCc1nc2ccccc2c2c1C(=O)N(NC(=O)c1cncc(Br)c1)C2=O
  0.45, .
#14 Cc1cc2c(cc1C)NC(c1ccc(C(C)C)cc1)C1=C(CC(C)(C)CC1=O)N2 (stereo not drawn)
  -0.27, .
#15 OC(CC#CCN1CCOCC1)(c1ccccc1)C1CCCC1 (stereo not drawn)
  0.01, -0.35

The final 6 entries of the section above come first, to join the parts.
Below each compound – CapD inh, AID504770
#10 O=C(NC1CC1)C1CCN(C(=O)c2ccc(Cl)cc2)CC1
  ., -0.4
#11 COc1ccc(/C=C2\SC(=S)N(CCCC(=O)Nc3c(C)n(C)n(-c4ccccc4)c3=O)C2=O)cc1
  0.51, .
#12 CC1=NN(c2ccc(C)c(C)c2)C(=O)/C1=C\c1ccc(-c2ccc(S(N)(=O)=O)cc2)o1
  2.6, -0.15
#13 CCc1nc2ccccc2c2c1C(=O)N(NC(=O)c1cncc(Br)c1)C2=O
  0.45, .
#14 Cc1cc2c(cc1C)NC(c1ccc(C(C)C)cc1)C1=C(CC(C)(C)CC1=O)N2 (stereo not drawn)
  -0.27, .
#15 OC(CC#CCN1CCOCC1)(c1ccccc1)C1CCCC1 (stereo not drawn)
  0.01, -0.35
#16 COc1ccc(CN2C(=O)c3ccccc3C2C(=O)NC2CCCC2)c(OC)c1 (stereo not drawn)
  -1.1, 0.3
#17 COc1ccc(CN(C(=O)NC2CCCC2)C2CCN(C(C)=O)CC2)cc1
  0.79, -0.25
#18 NC[C@@H]1O[C@H](O[C@@H]2[C@@H](CO)OC(O[C@@H]3[C@@H](O)[C@H](N)C[C@H](N)[C@H]3OC3O[C@H](CO)[C@@H](O)[C@H](O)[C@H]3N)[C@@H]2O)[C@H](N)[C@@H](O)[C@@H]1O (stereo partly drawn)
  -0.16, .
#19 CC1(C)CC(n2c(=O)c3c(n4cnnc24)-c2ccccc2CC32CCCCC2)CCO1 (stereo not drawn)
  ., -0.8
#20 O=c1nc2n(c3cc(Cl)ccc13)Cc1ccccc1-2
  1, .
#21 CC(C)(C)NCc1ccccc1OCc1cccs1
  0.29, -0.7
#22 CCOC(=O)N1CCC(NC(=O)c2nn(C)c3c2CS(=O)(=O)c2ccccc2-3)CC1
  -1.9, -0.6
#23 O=C1NC2C=NN(c3ccccc3)C(=O)C2NC1=O (stereo not drawn)
  19, -0.25
#24 COc1cc(C(=O)Nc2ccc3c(c2)CCN3C(C)=O)cc(OC)c1OC
  2.6, -1.2
#25 CC(C)(C)NC(=O)CCCN1C(=O)/C(=C/c2ccccc2)SC1=S
  4, -0.2
#26 CCOC(=O)c1ccc(NC(=O)CSc2nc3ccsc3c(=O)n2Cc2ccc3c(c2)OCO3)cc1
  0.08, -0.9
#27 Cc1nc(C(=O)Nc2ccc(Cl)cc2Cl)nn1-c1ccc(Cl)cc1
  0.11, .
#28 Cc1ccc(N2C(=O)NC(=O)/C(=C\c3ccco3)C2=O)c(C)c1
  ., 0
#29 Cn1cnnc1SC1c2cccc3cccc(c23)C1NS(C)(=O)=O (stereo not drawn)
  -0.12, 0.75
#30 O=C(OCc1nc2ccccc2s1)c1cc(=O)[nH]c(=O)[nH]1
  ., -0.2
#31 O=CN1CCN(c2ncc(-c3ccc(Cl)cc3)cn2)CC1
  0.58, .
#32 C=CCn1c(=O)c2c3c(sc2n2c(Nc4ccccc4)nnc12)CCCC3
  -0.05, -0.8
#33 Cc1cc(C)cc(CC(CC(=O)Nc2nncs2)C(=O)Nc2nncs2)c1 (stereo not drawn)
  ., -0.5
#34 Cc1cccn2cc(CN3CCCc4ccccc43)nc12
  0.9, 0.65
#35 c1ccc(-c2ncc(-c3nc4ccccc4o3)c(-c3ccncc3)n2)nc1
  2.3, .
#36 N#CCS(=O)(=O)c1ccccc1F
  -0.14, -0.15
#37 CN(C)/C=C(/C(=O)c1ccccc1)S(=O)(=O)c1ccc(Cl)cc1
  -1.2, .
#38 CC(=O)N/C(=C\c1ccccc1)C(=O)OCc1c(C)noc1C
  ., -0.4
#39 CCOC(=O)C1=C(C)N=c2s/c(=C/c3cc(Cl)ccc3O)c(=O)n2C1c1ccc(OC)c(OC)c1 (stereo not drawn)
  -0.065, .
#40 CCCCOc1ccc(C2Nc3ccccc3C(=O)N2c2ccc(C)c(Cl)c2)cc1 (stereo not drawn)
  3.7, .
#41 CC(C)S(=O)(=O)c1c(SCC#N)sc(C#N)c1N
  -1.1, -0.65
#42 O=C(CSc1nc2ccccc2c(=O)n1CCCCCC(=O)N1CCOCC1)c1ccc(Br)cc1
  0.55, .
#43 O=C(NNC(=O)c1cc(Cl)ccc1Cl)OCCCc1ccccc1
  -0.78, .
#44 COc1ccc(C2CC(c3ccc(OC)c(OC)c3)=NN2C(=O)c2cccs2)cc1 (stereo not drawn)
  3.4, .
#45 c1csc(Cc2nc3c4ccccc4ncn3n2)c1
  ., -0.45

Reprinted from the part before: 3 compounds; new compounds follow.
Below each compound – CapD inh, AID504770
#43 O=C(NNC(=O)c1cc(Cl)ccc1Cl)OCCCc1ccccc1
  -0.78, .
#44 COc1ccc(C2CC(c3ccc(OC)c(OC)c3)=NN2C(=O)c2cccs2)cc1 (stereo not drawn)
  3.4, .
#45 c1csc(Cc2nc3c4ccccc4ncn3n2)c1
  ., -0.45
#46 COC(=O)CCC(=O)Nc1ccc(Cl)cc1
  0.39, -0.1
#47 Cc1nc(SCC(=O)Nc2ccc3c(c2)OCCO3)c2c3c(sc2n1)CCC3
  0.16, .
#48 O=C(NCCc1c[nH]c2ccc(O)cc12)OCc1ccccc1OC(F)F
  0.53, .
#49 CN(CCc1ccccn1)C(=S)Nc1ccc(Cl)cc1Cl
  -0.15, -0.8
#50 c1ccc(CCNC2=NCCCS2)cc1
  0.14, -1
#51 CCN(CC)c1cccc(OC(=O)c2cccnc2Cl)c1
  -0.08, 0.05
#52 Cc1ccc(NC(=O)CCN2C(=O)c3ccccc3Sc3ncccc32)c(C)c1
  -1.4, 0.1
#53 O=c1c2ccccc2n(Cc2ccccc2)c(=O)n1Cc1nc(-c2ccccc2)no1
  0.86, 0.75
#54 COC(=O)Cc1c(C)c2ccc(O)c(C)c2oc1=O
  63, 1.6
#55 Nc1cccc(F)c1-c1ncon1
  0.96, 1.9
#56 CNC(=O)NC(=O)CSc1nnc(-c2ccco2)o1
  0.77, -0.05
#57 O=C(CN1CCCc2ccccc21)Nc1ccccc1
  -0.12, -0.6
#58 CC(C)N1CC(C(=O)Nc2ccc(Cl)c(Cl)c2)CC1=O (stereo not drawn)
  0.16, -0.85
#59 COC(=O)C1=C(N)OC(c2ccccc2)=C(C(C)=O)C12C(=O)Nc1ccc(Br)cc12 (stereo not drawn)
  -0.36, .
#60 O=c1/c(=C2/CCCCCN2)c2nc(-c3ccccc3)cn2n1-c1ccccc1
  -1.2, 1.6
#61 Oc1ccc(N=Cc2cccs2)cc1
  0.54, .
#62 COc1ccccc1C(=O)N/C(=C\c1ccccc1)C(=O)N1CCOCC1
  -0.43, -0.3
#63 COc1ccc(C)cc1N1C(=O)Cn2cccc2C1C(=O)NC1CCC(C)CC1 (stereo not drawn)
  ., -0.1
#64 CCN1C(=O)CCC1(C)C(=O)NC1CCCC1 (stereo not drawn)
  0.26, 0
#65 Cc1nc2ccccc2nc1CSc1nc2sc3c(c2c(=O)n1C)CCC(C)C3 (stereo not drawn)
  -0.55, -1.2
#66 O=C1/C(=C/c2ccc(-c3ccc([N+](=O)[O-])cc3)o2)C=C(c2ccccc2)N1c1cccc(Cl)c1
  -0.47, .
#67 COc1ccc(C2CC(=O)C3=C(C2)NC(C)=C(C(=O)OC2CCCC2)C3c2ccc([N+](=O)[O-])cc2)cc1 (stereo not drawn)
  -0.39, .
#68 CCCN1CCC(N(C(=O)Nc2ccccc2C(=O)O)C2CC2)CC1
  -0.2, .
#69 Cc1ccc(C(=O)NCCN2CCNC2=O)cc1
  -1.8, 2.2
#70 CC1(C)Cc2ccccc2C2=NNC(=O)C2=N1
  ., -0.75
#71 COc1ccc(-c2nc(NC(=O)c3cccc(-n4cnnn4)c3)sc2C)cc1
  ., -0.25
#72 CCOc1cccc(/C(O)=C2/C(=O)C(=O)N(Cc3ccncc3)C2c2ccccc2)c1 (stereo not drawn)
  ., 0.7
#73 NC1=NNC2=C(c3ccccc3C(F)(F)F)NNN12
  -3.7, -0.8
#74 C=CCN1CCN(C(=O)Cc2cccc(C)c2)CC1
  1.1, -0.75
#75 O=C(NCCc1ccccc1Cl)OCCc1ccccc1Cl
  -0.62, .
#76 COCC(CNC(=O)c1cc(S(=O)(=O)N2CCc3ccccc32)ccc1SCc1ccc(OC)cc1)COC
  -0.4, .
#77 CCOC(=O)C1=C(C)NC(C)=C(C(=O)OCC)C1C(=O)OCc1cc(=O)oc2cc(O)ccc12
  ., 0.3
#78 O=c1cc(O)c2sc3nc4c(c(C(F)(F)F)c3c2[nH]1)CCCCC4
  -0.19, 1.1
#79 COc1ccc(-n2c(O)c(C=NC(C)(C)C)c3ccccc3c2=O)cc1
  -0.2, -0.2
#80 CCc1ccccc1NC(=O)C1NC(=O)CC1c1ccccc1 (stereo not drawn)
  0.53, 0.35
#81 CCc1nc2c(c(=O)[nH]1)C1(CCCCC1)Cc1ccccc1-2
  1, 1.9
#82 Oc1ccc(Br)cc1C=NCc1ccncc1
  0.7, -0.5
#83 Cc1nc(SCC(=O)Nc2ccccc2F)c2c3c(sc2n1)CCCC3
  -0.025, .
#84 Cc1[nH]c2ccc(C(=O)Nc3ccccc3N3CCOCC3)cc2c1C
  ., 1.1
#85 Cc1ccc(-c2nn(C)c(=O)c3ccccc23)cc1CNC(=O)CSc1nc2ccccc2o1
  0.43, 0.5
#86 N#CC(Cc1cccnc1)C(=O)Nc1ccccc1 (stereo not drawn)
  ., -0.05
#87 CCc1ccc(N2CC(C(=O)NC(C)CC)CC2=O)cc1 (stereo not drawn)
  ., -0.35
#88 O=C(CCN1CCc2ccccc21)N1CCCC1
  0.17, .
#89 COc1cc2c(N3C(=O)CCC3=O)c3c(=O)oc(C)cn3c2cc1OC
  -0.1, -0.95
#90 CSc1ccc(C(N)CCO)cc1 (stereo not drawn)
  -0.39, -1.2
#91 CC1CC(C)(C)NC(=S)N1CCC(=O)N1c2ccccc2CC1C (stereo not drawn)
  0.035, .
#92 COc1cc(/C=N/NC(=O)c2cc3ccccc3s2)cc([N+](=O)[O-])c1O
  0.36, .
#93 CS(=O)(=O)c1ccc2ccn(OCC3CCCCO3)c2c1 (stereo not drawn)
  22, .
#94 CC1=C(C(=O)OCc2ccccc2)C(c2ccncc2)C(C#N)=C(N)O1 (stereo not drawn)
  0.42, .
#95 CCCN(CC1CC1)C(=O)CSc1nnc(Nc2ccccc2F)s1
  ., -0.35
#96 CCCCn1cc(C(=O)c2cc(C)ccc2O)cc(C#N)c1=O
  ., -0.7
#97 CC1=C(C(=O)OCC2CCCO2)C(c2ccc(C)o2)C2=C(CCCC2=O)N1 (stereo not drawn)
  ., -0.1
#98 O=C(NCc1ccc2c(c1)OCO2)c1cccc(C(=O)NCc2ccc3c(c2)OCO3)c1
  ., -0.2
#99 c1ccc(-c2nn3c(-c4ccccc4)nnc3c3ccccc23)cc1
  -0.05, 0.6
#100 COc1ccc(C2(C(=O)N3CCC(n4nc(-c5ccccc5)oc4=O)CC3)CC2)cc1
  -0.99, -1.2
#101 Cc1oc(-c2cccc(Cl)c2)nc1CSc1nc2c(c(=O)[nH]1)CCCC2
  0.33, -0.8
#102 COc1cc(/C=C/C(=O)OCC(=O)Nc2cccc(F)c2)ccc1O
  ., -0.4
#103 CCn1c2ccccc2c2cc(CN(CCOC(=O)N3CCN(c4ccc(C)cc4)CC3)C(=O)OC(C)(C)C)ccc21
  2.2, .
#104 Cc1onc(-c2ccccc2)c1C1=N/C(=C\c2cccc(Br)c2)C(=O)O1
  0.015, .
#105 O=S1(=O)N=C(Cl)c2ccccc21
  ., 0.75

(listing goes on)
Below each compound – CapD inh, AID504770
#106 COc1ccccc1C1CCN(Cc2cccc(C(=O)N3CCC(O)CC3)c2)CC1
  0.88, 2.2
#107 O=C(NC(=S)Nc1ccc(I)cn1)c1ccccc1
  -0.29, .
#108 Cc1ccc(S(=O)(=O)N2Cc3ccccc3CC2C(=O)NCCC(C)C)cc1 (stereo not drawn)
  -0.28, -0.25
#109 CC(C)C1C(c2ccccc2)NC(c2ccccc2)CC1(C)O (stereo not drawn)
  -0.055, .
#110 Cc1cc(COC(=O)N2CCC(O)(c3ccc(Cl)cc3)CC2)no1
  -0.47, .
#111 COc1ccc2c(c1)-c1ccccc1S(=O)(=O)N2S(=O)(=O)c1ccc(C)cc1[N+](=O)[O-]
  0.47, .
#112 CCC(C)C1NC(=S)N(C2CCCCC2)C1=O (stereo not drawn)
  4.4, 1.4
